miR-21 reporter = qHTS Assay for Modulators of miRNAs and/orActivators of miR-21; 340,000 tested, under 10 active; Potency, µM (top dose mostly 38.3 µM), without a hit: at the highest dose reporter change, positive = more light; HeLa miR-21 FLuc reporter, luciferase, 48 h; AID 2288, 2010; active = well fitted rising curve with a large enough effect; inconclusive = small, poorly fitted or top-dose-only effect; inactive = no such curve, though single readings can be large or run the other way;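 also: % of control where 0% means no effect; miR-21 action dims this reporter so a rising signal means less miR-21 action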
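HeLa cells stably expressing CMV-driven firefly luciferase with a downstream miR-21 binding sequence, endogenously expressing miR-21, were treated with titrations (up to about 40uM final) for 48 hours at 37 degree Celsius. Luciferase luminescence was read after lysis.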
Active calls of the source: *; u = inconclusive.

SMILES	miR-21 reporter
CCCC(=O)N1CCc2cc(OC)c(OC)cc2C1COc1ccc(C(=O)OC)cc1 (stereo not given)	7%
CN(Cc1ccc(F)cc1)S(=O)(=O)c1nnc(NC(=O)c2ccc(F)cc2)s1	12%
CCOC(=O)c1c(S(=O)(=O)N2CCCC(C(=O)N3CCN(c4cccc(C)c4C)CC3)C2)c(C)n(C)c1C (stereo not given)	25%
CCOc1ccccc1C(=O)Nc1ccc(S(=O)(=O)N(Cc2ccccc2)c2ccccc2)cc1	-7%
COc1cc(C(=O)OCc2cc(=O)n3ccsc3n2)cc(OC)c1OC	20%
Cc1cccc(NC(=O)c2ccc(F)c(S(=O)(=O)N3CCN(c4ccc(F)cc4)CC3)c2)c1	25%
Cc1ccc2c(c1)cc1c(=O)n(Cc3ccc(Cl)cc3)nc(C)n12	1%
CCc1cccc(NC(=O)c2nc(-c3ccncc3)no2)c1	1%
COc1cccc(-c2nnc3n(Cc4ccc(C)cc4)c(=O)c4ccccc4n23)c1O	1%
O=C1C(c2ccc(F)cc2)N(CCc2ccccc2)C(=O)CN1C1CCCCCC1 (stereo not given)	-3%
Cc1cc(C)cc(NC(=O)CSc2oc(-c3ccco3)nc2S(=O)(=O)c2ccc(Cl)cc2)c1	28%
CC(=O)c1ccc(NC(=O)Cn2c3ncccc3c(=O)n2-c2ccc(C)cc2)cc1	5%

Structural class: the entries above containing two or more sulfur atoms (2)
SMILES	miR-21 reporter
CN(Cc1ccc(F)cc1)S(=O)(=O)c1nnc(NC(=O)c2ccc(F)cc2)s1	12%
Cc1cc(C)cc(NC(=O)CSc2oc(-c3ccco3)nc2S(=O)(=O)c2ccc(Cl)cc2)c1	28%

New compounds follow
SMILES	miR-21 reporter
Cc1cc(C)cc(NS(=O)(=O)c2ccc3[nH]cc(C(=O)N4CCCCC4)c(=O)c3c2)c1	-3%
CCOC(=O)c1cnc2ccc(C(=O)OC)cc2c1Nc1ccc(OCc2ccccc2Cl)cc1	1%
COc1c(Cl)cc(C(=O)N(Cc2ccccc2F)C2CCS(=O)(=O)C2)cc1Cl (stereo not given)	-3%
Cn1nc(-c2ccc(OCC(=O)Nc3ccc(Cl)cc3)cc2)c2ccccc2c1=O	27%
COc1ccc(N2CCN(S(=O)(=O)CCNC(=O)Cc3ccc(OC)c(OC)c3)CC2)cc1	0%
CCn1cc(C(=O)N2CCN(c3cc(C)ccc3C)CC2)c(=O)c2cc(S(=O)(=O)N(C)C3CCCCC3)ccc21	0%
COC(=O)c1c(NC(=O)CCCOc2ccccc2C)sc2c1CCC(C)C2 (stereo not given)	0%
Cc1cc(C)cc(NS(=O)(=O)c2cc3c(cc2C)NC(=O)CO3)c1	-11%
COc1cc(OC)c(NC(=O)C2=C(C)C(=O)OC23CCN(C(C)=O)CC3)cc1Cl	-2%
CC1=C(C(=O)OCC2CCCCC2)C(c2cccc(Cl)c2Cl)CC(=O)N1 (stereo not given)	-1%
CCOc1ccc(CNCc2c(C(=O)O)c(C)n(Cc3cccc(OC)c3)c2C)cc1OC	-2%
COC(=O)c1cccc(NC(=O)Nc2cc(C(=O)NCc3cccc(F)c3)ccc2N2CCCC2)c1	12%
CN(C(=O)c1cc(-c2ccccc2O)on1)c1ccccc1	-6%
COc1ccc(OC)c(NC(=O)CC2C(=O)NCCN2C(=O)C(F)(F)F)c1 (stereo not given)	-4%
Cc1ccc(-c2cc3ncc4c(n3n2)-c2cc(C)ccc2OC4)cc1	1%
O=C(C1CC1)N1CCc2cc(Br)cc(S(=O)(=O)N3CCN(c4ccccc4F)CC3)c21	5%
CN(C)c1ccc(/C=C(\C#N)c2nc(-c3ccc(Cl)c(Cl)c3)cs2)cc1	-5%
O=C(CCS(=O)(=O)c1ccccc1)N(Cc1cccnc1)c1nc2ccc(F)cc2s1	-2%
Cn1c(=O)c(=O)n(C)c2cc(NC(=O)c3ccccc3Br)ccc21	-1%
O=C(CN1C(=O)C2(SCC(=O)N2c2ccccc2)c2ccccc21)Nc1ccccc1C(F)(F)F (stereo not given)	6%
Cc1ccc(NC(=O)Cn2nnc(C(=O)NCc3ccc4c(c3)OCO4)c2N)cc1Cl	-22%
O=C(Cn1c(SCCOc2ccccc2Cl)nc2ccccc21)N1CCOCC1	3%
Cc1ccc2c(c1)c(=O)c1ccccc1n2CCCC(=O)Nc1cc(Cl)ccc1C	-9%
CSc1ncc(Cl)c(C(=O)Nc2c(C(=O)c3ccc(Cl)cc3)oc3ccccc23)n1	2%

Sorted by the number under miR-21 reporter (lowest first): 3 from the list above
SMILES	miR-21 reporter
Cc1ccc(NC(=O)Cn2nnc(C(=O)NCc3ccc4c(c3)OCO4)c2N)cc1Cl	-22%
CN(C)c1ccc(/C=C(\C#N)c2nc(-c3ccc(Cl)c(Cl)c3)cs2)cc1	-5%
O=C(C1CC1)N1CCc2cc(Br)cc(S(=O)(=O)N3CCN(c4ccccc4F)CC3)c21	5%

Continuation.
SMILES	miR-21 reporter
Cc1cc(C)n2nc(CNC(=O)c3cccc(Cl)c3)nc2n1	-10%
O=C(Nc1ccc(C(F)(F)F)cc1)N1CCC(N2CCCCC2)CC1	-3%
Cc1nc2cccnc2n1C1CCN(C(=O)Nc2ccccc2C(F)(F)F)CC1	0%
CCc1ccc(CN(Cc2ccco2)C(=O)COc2ccc(Cl)cc2C)cc1	18%
COC(=O)c1cccnc1-n1c(=O)c2cccnc2n(CC(=O)Nc2ccccc2F)c1=O	4%
Cc1cccn2c(=O)c(C(=O)NCCc3ccc(S(N)(=O)=O)cc3)c(O)nc12	0%
Cc1nn(CC(=O)NCc2ccccc2Cl)c(=O)c2cccn12	-20%
Cc1nc2nncn2c(N2CCN(c3ccccc3)CC2)c1C	9%
CCOC(=O)C1CCCN(S(=O)(=O)c2cc(-c3cc(C)no3)ccc2C)C1 (stereo not given)	14%
CC(=O)c1cc(-c2ccccc2)n(CCC(=O)NC(C)c2ccccc2)c1C (stereo not given)	1%
Cc1ccc(OCC(=O)Nc2ccccc2OCc2cc(=O)n3ccccc3n2)cc1C	0%
COc1cc(OC)cc(N(C(=O)c2snc(C(N)=O)c2N)C(C(=O)NCC2CCCO2)c2ccc(C)o2)c1 (stereo not given)	21%
Cc1ccccc1CN1C(=O)c2ccccc2Sc2ccc(C(=O)NC(C)c3ccccc3)cc21 (stereo not given)	-3%
O=C(NCCc1ccc(Cl)cc1)c1ccc(CS(=O)(=O)Cc2ccccc2F)o1	25%
Cc1ccc2c(c1)N(C(=O)C1CCN(S(=O)(=O)c3c(C)noc3/C=C/c3ccccc3F)CC1)CCO2	5%
CCC(C)n1c(=N)c(C(=O)NC2CCCC2)cc2c(=O)n3ccccc3nc21 (stereo not given)	4%
CCCN1C(=O)C2(c3ccccc31)c1c(oc3ccc(C)cc3c1=O)C(=O)N2CCOC (stereo not given)	3%
COc1ccccc1-c1nnc(C2CCN(S(=O)(=O)c3ccc(CC(C)C)cc3)CC2)o1	19%
Cc1ccc(Nc2ncnc3c2nc2n3CCCC2)c(Br)c1	25%
COC(=O)c1ccc(NC(=O)CSc2nc(=O)n(Cc3ccco3)c3c2CCC3)cc1	9%
Cc1ccc(-c2nnn3c2nc(NC2CCC(C)CC2)c2ccccc23)cc1 (stereo not given)	-13%
CCc1ccccc1NC(=O)CSc1nc2ccccc2nc1Cc1cccc(OC)c1	9%
Cc1nn(-c2ccccc2)c2c1cc1c(=O)n(C)c(=O)nc-1n2-c1cccc(Cl)c1	-10%
Cc1ccc(-c2nn(-c3ccc(F)cc3F)c3c2cnc2ccc(F)cc23)cc1	-2%
COc1cc2c(cc1OC)C(c1ccc(Cl)cc1)N(c1ccc(C)c(F)c1)C(=O)C2 (stereo not given)	23%
Cc1cc(C)cc(NC(=O)C2CCCN2S(=O)(=O)c2ccc3nc(-c4ccccc4)[nH]c3c2)c1 (stereo not given)	24%
CCOc1ccccc1C(=O)Nc1cc(-c2nc3cccnc3s2)ccc1C	-21%
COc1cc(OC)c(NC(=O)C(c2ccccc2)N2Cc3ccccc3C2=O)cc1Cl (stereo not given)	-10%
CCc1ccccc1NC(=O)c1ccc(=O)n(Cc2ccc(F)cc2)c1	-4%
CCc1nn(CC(=O)N2CCN(c3cccc(C(F)(F)F)c3)CC2)c(=O)c2cc3occc3n12	-2%
COc1ccccc1CNC(=O)CCC(=O)N1Cc2ccccc2Oc2ncccc21	-1%
COc1cc(OC)c(OC)cc1CN1CCc2nc(N3CCN(c4ccccc4F)CC3)ncc2C1	24%
Cc1ccc(-n2nc3ccc(NC(=O)COc4ccccc4)cc3n2)cc1Cl	-7%
Cc1cccc(CN2C(=O)N(c3ccc(C(C)C)cc3)S(=O)(=O)c3ccccc32)c1	-5%
Cc1ccc(C(c2ccccc2)c2c(C)[nH]c3ccccc23)s1 (stereo not given)	-10%
CNC(=O)CCCN1C(=O)CCn2nc(-c3cn(C)c4ccccc34)cc21	-4%

In the list so far, these contain bromine.
SMILES	miR-21 reporter
O=C(C1CC1)N1CCc2cc(Br)cc(S(=O)(=O)N3CCN(c4ccccc4F)CC3)c21	5%
Cn1c(=O)c(=O)n(C)c2cc(NC(=O)c3ccccc3Br)ccc21	-1%
Cc1ccc(Nc2ncnc3c2nc2n3CCCC2)c(Br)c1	25%

The listing continues.
SMILES	miR-21 reporter
CC1=C(c2ccc(F)cc2)S(=O)(=O)NC1=NCc1ccccc1Cl	6%
O=C(Nc1ccc(Cl)c(C(F)(F)F)c1)C(Cc1ccccc1)NS(=O)(=O)c1cccc2nsnc12 (stereo not given)	20%
Cc1c(C)n(C)c2ccc(C(=O)NCCc3ccc(Cl)cc3)cc12	-19%
CCc1ccc(C2=C(C)C(N3CCC(C(=O)Nc4ccc(F)cc4)CC3)=NS2(=O)=O)cc1	5%
COc1ccc(OC)c(Nc2ncc3c(n2)CCN(Cc2cc(OC)c(OC)c(OC)c2)C3)c1	-8%
O=C(OCC1CCCO1)c1ccc2c(c1)N(Cc1ccccc1F)C(=O)c1ccccc1S2(=O)=O (stereo not given)	0%
CCCCN(CC)CCNc1ncnc2onc(-c3ccc(Cl)cc3)c12	-4%
CCc1nn(CC(=O)NCCc2ccc(SC)cc2)c(=O)c2cc3sccc3n12	-4%
Cc1ccc(CNc2nc3c(S(=O)(=O)c4ccc(C)c(C)c4)nnn3c3ccc(Cl)cc23)cc1	0%
Cc1nn(-c2ccccc2)c2sc(C(=O)Nc3cccc(O)c3)cc12	24%
CCN(C(=O)Cn1c(=O)n(CC2CCC(C(=O)NC)CC2)c(=O)c2sccc21)c1ccccc1 (stereo not given)	0%
Cc1ccccc1-c1nnc(SCC(=O)N2CCCc3ccccc32)o1	-9%
Cc1cccc(NC(=O)C2C3C=CC(O3)C2C(=O)O)c1 (stereo not given)	-1%
CC(=O)c1ccc(NC(=O)CSc2nnc(NC(=O)Nc3ccccc3)s2)cc1	-63%
Cc1ccc(NC(=O)CSc2ncc(S(=O)(=O)c3ccc(C(C)C)cc3)c(=O)[nH]2)cc1C	-9%
CCC(=O)Nc1nnc(S(=O)(=O)N(C)Cc2ccc(Cl)cc2)s1	0%
COc1cccc2c1Oc1ncccc1N(C(=O)CCC(=O)NCc1ccc(OC(C)C)cc1)C2	0%
CCOc1ccc(OCCOCCn2c(-c3ccc(Cl)cc3)nc3ccccc3c2=O)cc1	-3%
COc1ccc2oc(-c3ccc(C)c(NC(=O)c4ccc(N5CCCCC5)c([N+](=O)[O-])c4)c3)nc2c1	-8%
O=C(c1noc2c1CCCCC2)N1CCN(c2cccc(Cl)c2)CC1	-4%
CN(C(=O)c1oc(=O)c2ccccc2c1-c1ccccc1)c1cccc(Cl)c1	0%
CCc1ccc(-c2nn(CC(=O)NC3CCCCC3)c3c2cnc2ccc(OC)cc23)cc1	-8%
CCc1ccc(NC(=O)Cn2c(=O)n(CCCCC(=O)NCCc3ccccc3)c(=O)c3ccccc32)cc1	-1%
Cc1ccc(NC(=O)c2cc(S(=O)(=O)NC3CCCCCC3)ccc2F)cc1F	16%
CCOc1ccc(CCNC(=O)c2nn(-c3ccc(OC)cc3)c(=O)c3c2c2ccccc2n3C)cc1OCC	-9%
CCc1cc2c(cc3c(=O)n(CC(=O)NCCc4ccccc4)ncn32)s1	-6%
CS(=O)(=O)C1=NSC2=NC(=O)/C(=C\c3ccc(OC(=O)c4ccco4)cc3)C(=N)N21	-3%
C#CCn1c(=O)n(-c2cccc(Cl)c2C)c(=O)c2c3c(sc21)CN(C(C)=O)CC3	-5%
Cc1ccc(Nc2nc3ccccc3c3nncn23)cc1C	-10%
COc1cc(OC)c(NC(=O)C2CCN(S(=O)(=O)c3ccc4c(c3)oc(=O)n4C)CC2)cc1Cl	1%
CCCSc1ncc(Cl)c(C(=O)Nc2ccc(S(=O)(=O)N3CCCCC3C)cc2)n1 (stereo not given)	u
CC(C)c1cnc2c(c1SCC(=O)NCc1ccccc1)c(=O)n(C)c(=O)n2C	-5%
O=C(Nc1ccccc1C(F)(F)F)C1CCN(c2nnc(-n3cccc3)s2)CC1	-8%
Cc1ccc(NC(=O)c2ccc(CN3CC(=O)N4CCCCC4C3=O)cc2)c(Cl)c1 (stereo not given)	2%

This is a subset. The share of hits here may be higher or lower than overall.
